Menin MLL FP FL = menin-MLL binding inhibition, fluorescein peptide. Fluorescence polarization, fluorescein-MLL peptide displacement from menin. FP activity change, % at 61.4 µM. 290,000 tested, under 10 active; inconclusive = falling polarisation curve, or a change in total fluorescence; inactive = total fluorescence flat and polarisation flat or rising; no compound was filed as active; the % refers to the polarisation; negative = inhibition;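 note: % of control where 0% means no effect; inhibitors lower the polarisation; unlabelled MLL peptide was the positive control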
gsp antagonist = antagonizes gsp, the McCune-Albright syndrome mutation; gsp-mutant cells, cAMP HTRF, 30 min; control for the full effect not named in the record; Potency, µM (titrated, usually from 76.9 µM), for inactives: top-dose activity change, negative = inhibition, usual class: inhibitors; 0.4% of 340,000 active; AID 624288; active = falling curve of any shape with a large fitted effect; inconclusive = falling curve, mostly with a smaller effect; inactive = flat or rising curve; cell line not stated here;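 note: intracellular cAMP measured with PDE inhibitor Ro 20-1724 present during compound exposure; potency is the fitted concentration of half-maximal effect; % is set by controls: 0 for no effect and ±100 for the full control effect; nearly all actives have a fitted effect of over 65% in size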
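HTRF cAMP read-out (cAMP-d2 plus anti-cAMP antibody-K in lysis buffer, 30 min RT). Before lysis, cells are exposed to compounds with […] for 30 min at 37C in DPBS containing Ca/Mg, BSA and Tween 20.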
CtBP-E1A blk = inhibitors of CtBP/E1A interaction | AlphaScreen GST-E1A/His-CtBP binding, 1536-well; active compounds read low; control for the full effect not named in the record | AID 651724 | activity change, % (test concentration not listed) | 0.49% of 340,000 active; in the data active means activity change below about -65%; inconclusive means about -30% to -65%; inactive means above about -30%; note: % is set by controls: 0 for no effect and ±100 for the full control effect
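AlphaScreen with 125 nM GST-E1A and 125 nM His-CtBP (5X stocks) in Tris pH 8.0, 300 mM NaCl, BSA, Tween 20, TCEP. Compounds preincubated 2 h at 37 deg C, then glutathione donor/nickel acceptor beads added for 1 h at 37 deg C in dark.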
Sfp PPTase inh = inhibitors of Bacillus subtilis Sfp phosphopantetheinyl transferase | AID 1490 | Q9F4F7 | Potency, µM, for inactives: max response, negative = inhibition, actives largely listed as inhibitors | Biochemical Sfp PPTase activity, qHTS | 3.5% of 310,000 active; active = well fitted inhibition curve with a large enough effect; inconclusive = small, poorly fitted or top-dose-only effect, or another doubt; inactive = no such curve, though single readings can be large or run the other way;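 note: the enzyme is Sfp with the accession as filed and its product quenches rhodamine fluorescence; potency is the fitted concentration of half-maximal effect; 0% = enzyme reaction without inhibitor and -100% = no enzyme wells; top concentration of the series not given in the record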
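Compounds were incubated with enzyme (final 15 nM) for 15 min at room temperature before substrate addition started the reaction. Fluorescence at 525 nm excitation, 598 nm emission was recorded immediately and after 30 minutes.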
gsp agonist = activates gsp, the McCune-Albright syndrome mutation | gsp mutant cells, cAMP HTRF, 30 min; control for the full effect not named in the record | Potency, µM (doses to about 76.9 µM), for inactives: at the top dose activation (cAMP increase), hits mostly activators | 0.13% of 340,000 active | AID 624287; active = well fitted activation curve with a large enough effect; inconclusive = small, poorly fitted or top-dose-only effect, or another doubt; inactive = no such curve, though single readings can be large or run the other way; cell line not stated here;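 note: phosphodiesterase inhibitor Ro 20-1724 added with compounds to block cAMP breakdown; potency is the fitted concentration of half-maximal effect; nearly all actives have a fitted effect of over 60% in size; about a fifth of the inactives were tested at one dose only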
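Cells stably selected in G418 were plated at 2000/well, grown 16-24 hr, then given compounds in DMSO with the PDE inhibitor […] (300 uM solution added) for 30 min at 37C; cAMP was read by HTRF.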
TRPV1 potentiator = enhances activation of the human vanilloid receptor TRPV1 | AID 540277 | 0.02% of 320,000 active | TRPV1-expressing cells, Fluo-8 calcium influx, capsaicin EC20 potentiation; host cell line not named in the record; control for the full effect not named in the record | Q8NER1 | potentiation, % at 8.33 µM; active means potentiation above 80%; inconclusive means 30% to 80%; inactive means below 30%; note: 0% is about no effect
Target sequence (Q8NER1 whole entry, looked up): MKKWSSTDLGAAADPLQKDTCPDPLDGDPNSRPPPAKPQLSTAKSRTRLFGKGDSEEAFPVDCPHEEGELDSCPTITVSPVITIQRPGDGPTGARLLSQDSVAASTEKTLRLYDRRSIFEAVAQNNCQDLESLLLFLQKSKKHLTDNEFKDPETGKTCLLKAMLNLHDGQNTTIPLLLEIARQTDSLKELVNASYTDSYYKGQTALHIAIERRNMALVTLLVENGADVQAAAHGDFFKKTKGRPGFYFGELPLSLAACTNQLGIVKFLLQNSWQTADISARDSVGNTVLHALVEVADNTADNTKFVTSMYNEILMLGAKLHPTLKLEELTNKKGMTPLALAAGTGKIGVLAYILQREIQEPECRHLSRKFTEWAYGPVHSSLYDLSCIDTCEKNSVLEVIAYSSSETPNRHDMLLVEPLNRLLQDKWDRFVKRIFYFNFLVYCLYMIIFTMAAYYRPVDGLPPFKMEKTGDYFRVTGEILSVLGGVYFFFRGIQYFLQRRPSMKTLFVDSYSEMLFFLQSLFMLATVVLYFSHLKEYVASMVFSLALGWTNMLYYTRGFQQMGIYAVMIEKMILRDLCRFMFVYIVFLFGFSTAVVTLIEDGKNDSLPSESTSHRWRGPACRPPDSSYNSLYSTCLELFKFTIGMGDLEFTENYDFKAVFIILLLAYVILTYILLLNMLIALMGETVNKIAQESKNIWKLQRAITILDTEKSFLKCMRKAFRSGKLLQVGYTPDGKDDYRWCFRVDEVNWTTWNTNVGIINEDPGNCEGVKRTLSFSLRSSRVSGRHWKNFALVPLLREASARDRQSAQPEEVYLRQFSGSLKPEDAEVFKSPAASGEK
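Fluo-8 calcium influx in TRPV1-expressing cells, kinetic read (ex 480/em 520 nm). Compound added and read 3 min for agonist activity, followed by capsaicin at EC20 final and 2 min further read for enhancement.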
ClpP mod = qHTS Assay for Activators of ClpP; 1.9% of 340,000 active; ATP-dependent Clp protease proteolytic subunit (Bacillus subtilis (strain 168)), P80244; Potency, µM (doses to about 57.5 µM), inactives show at the highest dose activity change, negative = active; purified B. subtilis ClpP, FRET peptide cleavage, 20 min; active = well fitted falling curve with a large enough effect; inconclusive = small, poorly fitted or top-dose-only effect; inactive = no such curve, though single readings can be large or run the other way; note: potency is the fitted concentration of half-maximal effect; the source files actives as falling curves though it sought activators and does not explain the sign; nearly all actives have a fitted effect of over 65% in size; many hits overshoot -100%
Target sequence (P80244 whole entry, looked up): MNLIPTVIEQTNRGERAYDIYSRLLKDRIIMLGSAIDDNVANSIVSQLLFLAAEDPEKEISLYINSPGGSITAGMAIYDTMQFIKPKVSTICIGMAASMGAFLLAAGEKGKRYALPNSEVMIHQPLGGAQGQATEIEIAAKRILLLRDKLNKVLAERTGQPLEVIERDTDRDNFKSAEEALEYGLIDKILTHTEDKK
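FRET quenching reversal measured ClpP activation: 10 microg/mL B. subtilis ClpP at pH 8 with the FRET-FV decapeptide, read at 430 nm after 320 nm excitation. The 20-min minus 0-min signal was scaled between DMSO/no-enzyme wells and ADEP (5.8 microM final).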
An asterisk follows results filed as active; u = inconclusive; x = not tested or not shown; [ ] = dose if it differs, or a comment. Compounds were not picked by outcome; any-hit rate near 5.3%.

SMILES	Menin MLL FP FL	gsp antagonist	CtBP-E1A blk	Sfp PPTase inh	gsp agonist	TRPV1 potentiator	ClpP mod
C[C@H](NC(=O)c1[nH]cnc1C(=O)Nc1ccccc1F)c1ccccc1	x	x	-28	x	-8%	x	-16%
CCC(CC)Nc1ccc(C(CC(N)=O)NC(=O)Cc2cccc3ccccc23)cc1[N+](=O)[O-] (stereo not given)	8.7	1%	-2	u	6%	-6	-0.1%
Cc1ccc(NC(=S)NCc2ccc(Cl)cc2)c(C)c1	-2.4	-2%	-23	14%	-42%[inhibitor]	-3	x
O=C(CN1C(=O)COc2ccccc21)NCCCN1CCCC1	x	2%	x	9%	-4%	3	-1.1%
Cc1ccc(CC(=O)NCCS(=O)c2ccc(Cl)cc2)cc1 (stereo not given)	5.0	0%	-7	3%	11%	5	-2.0%
O=C(Nc1cccc(C(F)(F)F)c1)C1CC(=O)N(CCc2ccccc2)C1 (stereo not given)	x	0%	x	x	-29%	-22	2.2%
CCc1[nH]c(C)c(C(C)=O)c1C	3.7	-8%	-4	15%	6%	4	-3.5%
Cc1nc(-c2cccc(NC(=O)c3ccc(Br)o3)c2)cs1	x	-24%	-11	15%	-17%	-10	1.0%
CC(=O)NCCc1nc2cc(NC(=O)c3ccc([N+](=O)[O-])cc3)ccc2n1C	-5.6	9%	-12	22%	7%[15.4 µM]	-2	x
O=C(O)CN1C(c2ccccc2)=Nc2ccc(Br)cc2C1c1ccccc1 (stereo not given)	0.0	4%	5	9%	8%[15.4 µM]	-1	x
CC(C)C(O)P(=O)(OCc1ccccc1)c1ccc(N(C)C)cc1 (stereo not given)	4.7	4%	8	9%	u	-7	-3.4%
COc1ccc(CCn2nnnc2C(c2ccc(Cl)cc2)N2CCN(C)CC2)cc1OC (stereo not given)	2.5	12%	-5	-7%	-31%[inhibitor]	3	1.2%
NC(=O)Cn1nc(C(F)(F)F)c2c1CCCC2	5.4	-9%	11	15%	39%[15.4 µM]	9	-0.9%
O=C(CSc1nc2ncc(Br)cc2[nH]1)c1ccc([N+](=O)[O-])cc1	3.2	-23%	-17	-10%	-23%	3	1.1%
CCOC(=O)N1CCN(S(=O)(=O)c2cccc3nonc23)CC1	7.1	12%	-1	16%	-2%	-8	-1.9%
CC(=O)Nc1ccc(-c2cn3cccnc3n2)cc1	3.8	20%	1	11%	17%	2	8.0%
CCN(CC)CCCNC(=O)c1cc(-c2ccc(Cl)cc2)on1	2.6	16%	1	18%	-111%[inhibitor]	-3	2.6%
Cn1cccc1CNC1CCCCC1	6.8	4%	15	8%	20%	-2	1.1%
COC(=O)c1sccc1OC(C)C(C)=O (stereo not given)	-2.0	15%	-2	-8%	11%	11	-0.3%
O=C(N/N=C/c1ccc(Br)s1)c1ccc([N+](=O)[O-])cc1	3.3	-27%	1	-3%	26%[15.4 µM]	-7	-2.2%
O=C(COC(=O)c1cccc(F)c1)NC(=O)NC1CCCC1	x	6%	x	x	29%	3	0.2%
O=C(N/N=C/c1ccc(N2CCOCC2)cc1)c1ccccc1NS(=O)(=O)c1cccs1	-0.1	-13%	-11	21%	-8%[15.4 µM]	2	x
O=c1oc2ccccc2cc1-c1cn2cccnc2n1	5.3	7%	-8	16%	u	4	u
O=C(NCC(c1ccco1)N1CCCC1)c1cccc(S(=O)(=O)N2CCCCC2)c1 (stereo not given)	x	x	-3	x	-4%	x	0.2%
CC1CCCCN1C(=O)C12CCC(C)(C(=O)C1)C2(C)C (stereo not given)	0.7	9%	4	7%	1%	10	-0.5%
CC(=O)c1c(N)c(C#N)c(C)n1-c1ccc(Br)cc1	3.8	-5%	-1	9%	-28%	-13	-1.6%
CN(C(=O)c1coc(=O)c2ccccc12)c1ccc(Br)cc1	-4.5	5%	9	2%	-12%[15.4 µM]	2	-3.7%
O=C(CN1C(=O)c2ccccc2C1=O)N(CCO)Cc1ccccc1	-1.2	9%	6	11%	7%	-15	-0.6%
CC(C)Oc1ccc(CC(=O)NNC(=S)Nc2ccccc2)cc1	-0.7	-5%	x	21%	-22%	10	0.9%
COc1ccc2sc(NC(=O)NC(=O)c3c(Cl)cccc3Cl)nc2c1	0.4	-11%	-27	-8%	-11%[15.4 µM]	6	-1.9%
Nc1nc2nc(-c3ccccc3)cc(=O)n2[nH]1	1.2	10%	7	14%	-22%	-14	-14%
CCCc1cc(=O)[nH]c(SCC(=O)Nc2ccc(N3CCCCC3)cc2)n1	x	-18%	-4	x	-2%	x	x
O=C(CN(Cc1ccccc1)C(=O)CNS(=O)(=O)c1ccccc1)NCC1CCCO1 (stereo not given)	-4.0	12%	11	18%	29%	0	x
Cc1nc2ncnn2c(C)c1CCC(=O)N1CCc2ccccc2C1	-0.2	6%	0	17%	14%	1	1.3%
Cc1nc(N2CCN(C)CC2)c2cc(-c3ccccc3)sc2n1	3.4	3%	-2	u	-8%	-10	x
Cn1c(N)c(C(=O)COC(=O)C2=NNC(=O)CC2)c(=O)n(C)c1=O	4.7	12%	-13	12%	23%[15.4 µM]	-3	x
Cc1[nH]c2ccccc2c1SCc1ccccc1	-0.9	-2%	-5	0%	-30%	-5	-0.9%
COC(=O)NNC(=O)c1ccc(C(C)(C)C)cc1	1.4	1%	0	-18%	22%	-6	1.8%
O=C(NCCSc1ccccn1)c1ccc(Cl)cc1	0.8	-4%	-2	14%	-2%	-4	x
COc1ccccc1NC(=O)CCNS(=O)(=O)c1ccc2c(c1)CCN2C(C)=O	0.3	-3%	2	9%	0%	5	-0.3%

Looked up by structure from above, two records:
SMILES	Menin MLL FP FL	gsp antagonist	CtBP-E1A blk	Sfp PPTase inh	gsp agonist	TRPV1 potentiator	ClpP mod
O=C(NCC(c1ccco1)N1CCCC1)c1cccc(S(=O)(=O)N2CCCCC2)c1 (stereo not given)	x	x	-3	x	-4%	x	0.2%
CC(C)Oc1ccc(CC(=O)NNC(=S)Nc2ccccc2)cc1	-0.7	-5%	x	21%	-22%	10	0.9%

The listing continues.
SMILES	Menin MLL FP FL	gsp antagonist	CtBP-E1A blk	Sfp PPTase inh	gsp agonist	TRPV1 potentiator	ClpP mod
C=CCOc1ccc(/C=C2\SC(=S)N(CCC(=O)O)C2=O)cc1	u	u	-3	6%	31%	-4	-1.6%
CNC(=O)Cn1nc(-c2ccc(Cl)cc2)c2ccccc2c1=O	-12	8%	-8	0%	-24%	-3	-2.0%
CS(=O)(=O)O/N=C1\CCCCC1c1ccc([N+](=O)[O-])cc1[N+](=O)[O-] (stereo not given)	-1.0	6%	-23	-8%	u	-7	x
COCOCCn1cc(CN2CCS(=O)(=O)N(Cc3ccc(-c4ccc(OC)c(OC)c4)cc3)C(CC(C)C)C2=O)nn1 (stereo not given)	x	x	3	x	-57%[inhibitor]	x	-6.4%
CC(C)(C)C(=O)Nc1cc(S(=O)(=O)N2CCCCC2)ccc1N1CCCCC1	4.0	u	2	-6%	9%[15.4 µM]	-10	x
Cc1ccc(S(=O)(=O)Nc2c(O)c3ccccc3oc2=O)cc1	-9.5	0%	6	0%	3%[15.4 µM]	-1	x
Cc1cc(CC(C)C)n(-c2nc3ccccc3c(=O)n2OCC(=O)N(C)C)n1	4.5	4%	6	20%	-15%	-15	-2.8%
O=C(NCc1ccco1)c1sc2ccccc2c1Cl	-0.6	-1%	-8	0%	14%	-6	1.3%
COC(=O)C1=C(C)NC(C)=C(C(=O)OC)C1c1ccc(OC(=O)c2ccco2)cc1	-6.6	11%	-2	-6%	-31%[inhibitor]	-2	18µM*
CSCCCNC(=S)N1CCN(c2ccc(C(C)=O)cc2)CC1	4.2	x	0	12%	-3%[15.4 µM]	24	x
COc1ccc(C(=O)C2CCCN(C(=O)Cn3ccc(C)n3)C2)cc1OC (stereo not given)	5.5	12%	1	-8%	u	-14	x
COC(=O)C1=C(C)N(CCCC(=O)O)C(=O)NC1c1ccccc1OS(=O)(=O)c1ccccc1[N+](=O)[O-] (stereo not given)	x	6%	-2	x	x	x	-2.5%
CCOC(=O)c1cnn(-c2ccccc2)c1NC(=O)c1ccc(C)cc1	-3.3	-5%	2	-1%	-1%	2	1.1%
COC(=O)c1cn(C(=O)c2cc(Cl)ccc2Cl)c2ccccc12	-0.1	-3%	-7	-24%	-26%[15.4 µM]	8	-4.1%
CC(Oc1ccc(Cl)cc1Cl)C(=O)Nc1ccncc1 (stereo not given)	0.8	-18%	-1	-1%	-10%	-6	0.9%
CCOC(=O)N/N=C(C)/C=C/c1ccco1	-1.9	-8%	4	-1%	-10%	11	x
COc1ccc(CN(C)C(=O)c2ccc(NS(=O)(=O)c3ccccc3)cc2)c(OC)c1	x	-22%	2	x	17%[15.4 µM]	8	x
COc1cccc(-c2csc(N3CCN(C(=O)NC45CC6CC(CC(C6)C4)C5)CC3)n2)c1	3.4	u	-9	-6%	u	-9	-3.2%
CCCCCCN1C[C@H](n2cc(-c3ccc(F)cc3)nn2)[C@@H](O)C[C@@H]1c1ccc(C)cc1	x	x	-7	x	-19%	x	-1.1%
CCC(=O)NC(=S)Nc1cccc(C(C)=O)c1	2.0	-2%	9	4%	-20%	8	1.7%
CN(Cc1ccccc1)C(=O)CN1C(=O)NC(C)(c2ccc(Cl)cc2)C1=O (stereo not given)	-1.7	7%	4	10%	32%[15.4 µM]	u	x
Nc1ccc(S(=O)(=O)NC2(C(F)(F)F)NC(=O)N(Cc3ccccc3)C2=O)cc1 (stereo not given)	-0.6	-28%	-10	24%	2%[15.4 µM]	-5	x
Cc1c(N(C(=O)c2cnccn2)C2(C(=O)NC3CCCC3)CCCCC2)c(=O)n(-c2ccccc2)n1C	-0.9	10%	1	16%	1%[15.4 µM]	16	x
c1cncc(-c2cn(C[C@H]3CC[C@@H]([C@@H]4CC[C@H](Cn5cc(-c6cccnc6)nn5)O4)O3)nn2)c1	-2.6	2%	4	7%	-37%[inhibitor]	-1	2.1%
COc1ccc(NC(=O)C2CCCN(S(=O)(=O)c3ccc4c(c3)CCCN4C(C)=O)C2)cc1Cl (stereo not given)	x	-18%	u	14%	-33%[inhibitor]	13	0.5%
COc1cccc(-c2nc(CS(=O)(=O)CC(=O)NCC(C)c3ccccc3)c(C)o2)c1 (stereo not given)	0.9	-11%	-6	-4%	u	0	-6.7%
